# High-throughput results as filed in PubChem.
# HCMV UL50-53 inh – cytomegalovirus nuclear egress complex inhibition | HTRF UL50-UL53 interaction, normalized percent inhibition | inhibition, % (concentration not given with the values) | actives 0.15% (n = 190,000);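 active = both replicates at 50% or more, plus weaker picks with an unusually low signal ratio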;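 also: stock transfer was 100 nL into about 20 µL; 0% = negative control wells and 100% = wells with untagged competitor protein; inactives centre near -12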
# GIV-Gai inh – inhibitors of GIV GBA-motif binding to rat Galpha-i3; actives 0.42% (n = 210,000); AID 1224905; percent of control (FP), % (no concentration beside the values); Galpha-i3/FITC-GIV peptide fluorescence polarization, 90 min; stronger effect = lower value; scaled: aluminum fluoride 0%, vehicle 100%; P08753;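 active = replicate mean at 85% of control or lower, very high polarization wells dropped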;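 also: wells of about 15 µL received 100 nL stock; the first replicate is given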
# Target sequence (P08753 whole entry, looked up): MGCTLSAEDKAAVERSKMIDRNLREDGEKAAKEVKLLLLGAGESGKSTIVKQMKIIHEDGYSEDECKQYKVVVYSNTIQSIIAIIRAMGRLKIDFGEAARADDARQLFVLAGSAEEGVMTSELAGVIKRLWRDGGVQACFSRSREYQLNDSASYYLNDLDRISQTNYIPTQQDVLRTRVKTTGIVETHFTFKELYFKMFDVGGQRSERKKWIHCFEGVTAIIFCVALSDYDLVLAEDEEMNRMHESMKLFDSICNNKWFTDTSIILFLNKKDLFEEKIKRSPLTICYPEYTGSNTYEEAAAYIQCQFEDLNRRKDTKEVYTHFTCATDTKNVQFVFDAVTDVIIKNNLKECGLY
# Sa growth inh – inhibitors of Staphylococcus aureus growth at 42 °C; S. aureus RN4220 growth, OD600, 20 h; stronger effect = lower value; relative growth, % (no concentration beside the values); actives 0.53% (n = 170,000); AID 720641;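 active = growth at 42 °C up to 50% and 20 or more points under that at 30 °C, or under 10% at both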;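 also: 300 nL library stock went into each well; scaled to the means of positive and negative controls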
# Sa growth inh second temp – further read-out of Sa growth inh, marked with its call; relative growth, %; measured here: growth at 30 °C;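 optical density after 20 h as mean of two plates; 100% = untreated growth and lower means inhibition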
# The depositor's hits bear a star; / = no result given. Hits appear at their usual frequency; about 0.83% have a hit in one of these screens.
# Short forms – A = HCMV UL50-53 inh; B = GIV-Gai inh; C = Sa growth inh; D = Sa growth inh second temp
> Cc1ccc2c(c1)OC=CC(C(=O)NC1CCCCC1)=C2
  A = -23.7	B = 102.1	C = /	D = /
> CCOC(=O)N1CCC(N=C2NS(=O)(=O)C(c3ccc(C)cc3)=C2C)CC1
  A = -16.9	B = 101.5	C = 101.0	D = 95.6
> N#Cc1cccc(NC(=O)NCC2CCCC(CNC(=O)Nc3cccc(C#N)c3)C2)c1 (stereo not given)
  A = -27.8	B = /	C = 87.6	D = 70.3
> O=C1N(Cc2ccccc2F)c2ccccc2C12OCCS2 (stereo not given)
  A = -2.9	B = 112.4	C = 96.4	D = 89.1
> C=CCn1c(Cc2ccc(O)c(Cl)c2)n[nH]c1=S
  A = -9.4	B = 105.6	C = 92.4	D = 93.5
> COc1ccc(/C=C2\Oc3ccccc3N(CC(=O)N3CCC(C(N)=O)CC3)C2=O)cc1Br
  A = -51.8	B = 106.8	C = 103.9	D = 75.2
> COc1c(C)cnc2c1c(=O)n(CC(=O)Nc1ccc(C)cc1)c(=O)n2C
  A = 5.6	B = 103.4	C = /	D = /
> Cn1cccc1/C=C1\CC(C(C)(C)C)C/C(=C\c2cccn2C)C1=O (stereo not given)
  A = -23.9	B = 238.2	C = 93.9	D = 90.9
> CC(C)CSc1n[nH]c(N)n1
  A = -18.8	B = 102.3	C = 102.8	D = 91.0
> OCc1sc2ccccc2c1Cl
  A = -5.6	B = /	C = 110.6	D = 80.5
> O=C(CC1CCN(S(=O)(=O)c2ccccc2)CC1)N1CCCCC1
  A = -22.7	B = 97.0	C = /	D = /
> Cc1ccc(C)c(N2CCN(C(=O)CNS(=O)(=O)c3cccs3)CC2)c1
  A = 1.5	B = 103.5	C = 97.2	D = 94.1
> O=C1CC(C(=O)OCc2ccccc2)N1 (stereo not given)
  A = -2.5	B = 102.9	C = 96.0	D = 96.0
> COc1cc(NS(=O)(=O)c2ccc(-c3cc(C)no3)cc2)cc(OC)c1
  A = /	B = 107.6	C = 104.8	D = 105.2
> CCN1CCc2c(sc3[nH]c(=S)[nH]c(=S)c23)C1
  A = -27.0	B = /	C = 77.5	D = 85.7
> O=C(NCCC1=CCCCC1)C1CCN(c2cc(-c3ccccc3)ncn2)CC1
  A = -18.2	B = 103.5	C = /	D = /
> Cc1ccc(NC(=O)CN(C)S(=O)(=O)c2ccc3c(c2)n(C)c(=O)c(=O)n3C)cc1C
  A = -22.2	B = 102.9	C = 88.9	D = 94.1
> COC(=O)c1sc2ncn3c(SCC(=O)Nc4ccc(OC)cc4)nnc3c2c1C
  A = -56.8	B = 115.2	C = /	D = /
> O=C(O)c1ccc(NN=C2CCCCCC2)cc1
  A = -47.4	B = /	C = 74.2	D = 89.7
> NS(=O)(=O)c1ccc(C(=O)OCc2ccccc2)cc1
  A = -5.5	B = 99.6	C = 98.8	D = 91.4
> COc1ccc(C)cc1NC(=O)Cn1cnc2onc(C)c2c1=O
  A = -4.1	B = 96.7	C = /	D = /
> CSC(=NCc1cccs1)NC(=O)c1c(Cl)cccc1Cl
  A = -21.1	B = 97.0	C = 94.7	D = 90.3
> O=C(NC1CC1)c1sc2ccccc2c1Cl
  A = -8.3	B = /	C = 107.8	D = 89.0
> COc1ccc(-c2nn(-c3ccccc3)cc2C(=O)N(C)C)cc1OC
  A = -0.9	B = /	C = 103.5	D = 101.0
> CCN1CCSc2ccc(C(=O)NCc3ccc(OC)cc3)cc21
  A = -1.0	B = 104.8	C = 106.0	D = 91.6
> O=C(NCCc1ccccc1)c1ccc2c(c1)N(Cc1ccccc1)CCS2
  A = /	B = 99.1	C = 125.2	D = 101.3
> N#CC1(Nc2ccccc2Cl)C(=O)Nc2ccccc21 (stereo not given)
  A = -20.4	B = 104.0	C = 77.0	D = 52.5
> O=C(c1cc2ccccc2o1)N(c1ccccn1)c1ccccn1
  A = -23.8	B = /	C = 115.2	D = 78.7
> CCN1CCN(CCCNC(=O)Cn2c(-c3cccs3)cc3cc(F)ccc32)CC1
  A = /	B = 111.6	C = 76.7	D = 80.4
> N#CCCN(Cc1ccccc1)C(=S)Nc1ccccc1
  A = -2.3	B = 97.2	C = 101.2	D = 98.4
> CC(=O)N=C1SC2CS(=O)(=O)CC2N1Cc1ccccc1Cl (stereo not given)
  A = -7.3	B = 103.3	C = 108.0	D = 83.9
> Cc1cc2cc3c(cc2nc1SCC(=O)N1CCCC1)OCCO3
  A = -14.9	B = 102.3	C = 115.5	D = 101.6
> NC(=O)c1ccc2[nH]c3c(c2c1)CCCC3
  A = -6.3	B = /	C = 92.1	D = 75.7
> COc1ccc(N2C(=O)CSC(c3ccccc3)C2=O)cc1 (stereo not given)
  A = -17.2	B = 101.8	C = /	D = /
> CCS(=O)(=O)c1ccc(-c2cccc(NS(=O)(=O)c3ccc(C)cc3)c2)nn1
  A = -47.4	B = 100.5	C = /	D = /
> COc1ccc(CN2CNc3c(c(C)nn3-c3ccccc3)C2)cc1
  A = /	B = 102.7	C = 92.7	D = 91.8
> COCCn1cc(C(=O)NCCCN2CCC(C)CC2)c2c3ccccc3n(C)c2c1=O
  A = -32.3	B = 101.5	C = 109.7	D = 85.6
> Cc1cc(C)nc(Nc2n[nH]c(C)n2)n1
  A = -15.5	B = 101.6	C = 91.2	D = 85.8
> Cc1c(C(=O)O)oc2ccc(S(=O)(=O)NC3CCCCC3C)cc12 (stereo not given)
  A = /	B = 100.0	C = 101.8	D = 84.6
> O=C(Cc1ccccc1)OCC1CCCN2CCCCC12 (stereo not given)
  A = 3.6	B = /	C = 118.0	D = 81.3
> CCOc1ccccc1NS(=O)(=O)c1ccc2[nH]c3c(c2c1)CCCCC3
  A = /	B = 101.3	C = 79.4	D = 91.8
> COc1ccc2nc(N3CCC(C(=O)N4CCN(c5ccccn5)CC4)CC3)sc2c1
  A = 5.2	B = 101.3	C = 101.9	D = 90.1
> CCN(C(=O)c1cc2cccnc2n(Cc2ccccc2)c1=O)C1CCCCC1
  A = 11.0	B = 105.2	C = /	D = /
> NC(=O)c1ccccc1NC(=O)Nc1ccccc1
  A = 3.1	B = 108.6	C = 103.9	D = 99.1
> N#Cc1nc(-c2ccc(COc3ccc(Cl)cc3)o2)oc1N1CCN(c2ccccc2)CC1
  A = -24.0	B = 95.5	C = 95.1	D = 89.3
> CC(=O)Nc1ccc(NC(=O)c2ccc(-c3cccc(C(F)(F)F)c3)o2)cc1
  A = -13.9	B = 94.9	C = 96.0	D = 81.9
> CCCn1c(SCC(=O)N2c3ccccc3Sc3ccccc32)nc2ccccc21
  A = /	B = 101.8	C = 115.1	D = 82.8
> CCCn1cnc2c1c(=O)n(C)c(=O)n2C
  A = -33.4	B = 103.5	C = 116.8	D = 86.0
> Cc1cc(C)cc(OCc2nc3cc(S(=O)(=O)N4CCOCC4)ccc3n2CC2CCCO2)c1 (stereo not given)
  A = 6.3	B = /	C = 93.1	D = 96.5
> O=C(O)CCCC(=O)N1N=C(c2ccc(Br)cc2)CC1c1cccc([N+](=O)[O-])c1 (stereo not given)
  A = -67.6	B = 97.4	C = /	D = /

# (listing goes on)
# Short forms – A = HCMV UL50-53 inh; B = GIV-Gai inh; C = Sa growth inh; D = Sa growth inh second temp
> COc1cc(NC(=O)CN2CCN(C3c4ccccc4-c4ccccc43)CC2)cc(OC)c1
  A = -23.4	B = 101.6	C = 99.5	D = 77.4
> c1cc(CNc2ccc3c(c2)CCC3)ccn1
  A = -19.0	B = 97.3	C = 111.1	D = 101.5
> COc1cc(/C=N/NS(=O)(=O)c2cc(C)ccc2C)cc(OC)c1O
  A = -13.6	B = /	C = 97.7	D = 92.9
> CC(=O)Nc1cccc(/C(C)=N/NC(=S)NCC2CCCO2)c1 (stereo not given)
  A = 6.3	B = /	C = 92.3	D = 92.0
> CCCCS(=O)(=O)N(O)c1ccc(Cl)cc1
  A = -19.7	B = /	C = 74.3	D = 53.6
> O=C(NC1CCN(C(=O)c2c(Cl)cccc2Cl)CC1)C1CCCCC1
  A = -10.9	B = 106.6	C = 118.3	D = 88.2
> Cc1ccc(-c2nc(CCNC(=O)C(C)C)cs2)cc1
  A = -22.5	B = 100.3	C = /	D = /
> CC(C)CCNc1nc2c(S(=O)(=O)c3ccc(Br)cc3)nnn2c2ccsc12
  A = /	B = 103.2	C = 107.5	D = 93.4
> O=C(O)C1C2CC3CC(C2)CC1C3 (stereo not given)
  A = -32.9	B = 92.1	C = 98.5	D = 74.8
> CC1=C(C(=O)OC(C)C)C(c2ccccc2)NC(=O)N1C (stereo not given)
  A = 10.0	B = /	C = 93.1	D = 102.3
> COc1ccc(N2CCN(/C(=N/S(=O)(=O)c3ccccc3)Nc3nc(C)cc(C)n3)CC2)cc1
  A = -12.1	B = 101.6	C = 101.4	D = 99.4
> COc1ccc(-c2csc(-c3c(C)noc3N(C(C)=O)C(C)=O)n2)cc1
  A = -22.8	B = 102.6	C = 98.0	D = 86.3
> COc1ccc2c(c1)CC/C(=C\c1cccn1C)C2=O
  A = -50.3	B = 100.9	C = 69.0	D = 52.2
> COc1ccc(-c2nonc2NC(=O)C(C)C)cc1
  A = -11.0	B = 99.3	C = 84.9	D = 84.4
> CCN(Cc1ccccc1)S(=O)(=O)c1ccc(F)c(C(=O)Nc2ccc(C(C)C)cc2)c1
  A = /	B = 98.8	C = 107.0	D = 91.5
> CN(C(=O)c1ccc2c(c1)C(=O)N(CCC1=CCCCC1)C2=O)C1CCCCC1
  A = /	B = 99.5	C = 117.6	D = 89.0
> Cc1ccc(CN2CCN(C3CCN(C(=O)c4ccccc4)CC3)C(=O)C2=O)cc1
  A = /	B = 101.4	C = 101.3	D = 85.2
> COc1cc(NC(=O)C(Cc2ccccc2)NS(=O)(=O)c2cccc3nsnc23)cc(OC)c1 (stereo not given)
  A = -88.0	B = 103.0	C = 95.1	D = 86.0
> COC(=O)CCc1ccc(/C=C/C(=O)O)o1
  A = -13.5	B = /	C = 100.3	D = 106.6
> C=CCN(CC=C)C(=O)CSc1nc(-c2ccccc2)cn1N
  A = 1.9	B = /	C = 96.4	D = 95.4
> COc1ccc2[nH]c(C(=O)NCc3ccc(C)cc3)c(N3CCCC3=O)c2c1
  A = 15.4	B = 100.8	C = /	D = /
> CC(=O)N1c2ccccc2CC1C(=O)N1CCC(C)CC1 (stereo not given)
  A = -14.2	B = 102.8	C = /	D = /
> N#CCCn1c(=O)[nH]c(=O)n(CCC#N)c1=O
  A = -9.5	B = 98.8	C = 104.3	D = 98.2
> COc1cc(/C=C2/NC(=S)NC2=O)ccc1OCc1ccc([N+](=O)[O-])cc1
  A = -18.8	B = 122.3	C = /	D = /
> Cc1cccc(N2CCN(c3ccc(NS(=O)(=O)c4ccc(F)cc4)c(C(=O)O)c3)CC2)c1C
  A = -20.7	B = 106.2	C = /	D = /

# Molecules from the list above with bromine (3):
# Short forms – A = HCMV UL50-53 inh; B = GIV-Gai inh; C = Sa growth inh; D = Sa growth inh second temp
> COc1ccc(/C=C2\Oc3ccccc3N(CC(=O)N3CCC(C(N)=O)CC3)C2=O)cc1Br
  A = -51.8	B = 106.8	C = 103.9	D = 75.2
> O=C(O)CCCC(=O)N1N=C(c2ccc(Br)cc2)CC1c1cccc([N+](=O)[O-])c1 (stereo not given)
  A = -67.6	B = 97.4	C = /	D = /
> CC(C)CCNc1nc2c(S(=O)(=O)c3ccc(Br)cc3)nnn2c2ccsc12
  A = /	B = 103.2	C = 107.5	D = 93.4

# Going on with the list.
# Short forms – A = HCMV UL50-53 inh; B = GIV-Gai inh; C = Sa growth inh; D = Sa growth inh second temp
> CC(=O)Oc1ccc2c(c1)cc(C)n2C
  A = -17.6	B = 104.5	C = 111.6	D = 88.3
> CC(=O)OC[C@H]1O[C@@H](n2ccc(=O)[nH]c2=S)C(OC(C)=O)C1OC(C)=O (stereo not given in full)
  A = -22.2	B = 97.6	C = 88.0	D = 87.0
> CS(=O)(=O)N(CC(=O)NC12CC3CC(CC(C3)C1)C2)c1ccc2c(c1)OCO2
  A = -23.5	B = 104.7	C = 89.0	D = 79.1
> O=C(CSc1nc2c([nH]c3ccccc32)c(=O)n1-c1ccccc1)Nc1ccc(Cl)c(Cl)c1
  A = /	B = 104.1	C = 107.6	D = 95.0
> CCn1c(CCC(=O)Nc2cc(OC)cc(OC)c2)nc2cc(S(=O)(=O)N(C)C)ccc21
  A = -11.6	B = /	C = 86.3	D = 83.7
> COc1ccc(-n2cc(C(=O)Nc3cc(OC)cc(OC)c3)nn2)cc1
  A = -18.7	B = 101.0	C = 78.6	D = 68.5
> Cc1ccc(-n2cc(C(=O)OCc3ccc(Cl)cc3)c3ccccc3c2=O)cc1
  A = /	B = 104.4	C = 167.9	D = 91.8
> Cc1ccc(Nc2nc(C(=O)N3CCC(C)CC3)cs2)cc1
  A = -0.9	B = 100.4	C = 112.9	D = 83.2
> CC(N=C1NS(=O)(=O)c2ccccc21)C(=O)O (stereo not given)
  A = -26.8	B = /	C = 91.0	D = 92.9
> O=C1NC(=O)N(c2ccccc2F)C(=O)/C1=C/c1cn(CC(=O)N2CCCC2)c2ccccc12
  A = /	B = 103.6	C = 108.7	D = 52.7
> CC1(C)CC(=O)C(C(=O)/C=C/c2ccco2)C(=O)C1
  A = -26.7	B = 98.6	C = 84.5	D = 84.8
> O=C(Nc1ccccn1)C1c2ccccc2Oc2ccccc21
  A = 7.8	B = 100.5	C = 98.4	D = 111.5
> CCOC(=O)c1ccc(NC(=O)CN(Cc2ccc(C)cc2)S(=O)(=O)c2ccc(C)cc2)cc1
  A = -27.5	B = 102.4	C = 88.6	D = 80.8
> Cn1c(=O)c2c(nc(Sc3ncnn3CC(=O)NC(C)(C)C)n2C)n(C)c1=O
  A = -26.2	B = 98.7	C = /	D = /
